UUG fidelity: modulators of yeast start codon fidelity, primary screen, whole organism, S. cerevisiae, single point, plate reader; S. cerevisiae UUG-firefly luciferase reporter, luminescence/redox ratio; activity score, % at 18.7 µM; hit rate 0.13% among 350,000; AID 602363, 2012;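 active means replicate mean at a twofold rise or more, about +100% in these data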;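 further: firefly luciferase made from a UUG start codon reports start codon fidelity; reporter light over untreated wells divided by growth signal over untreated wells; some hits fall short of that in this replicate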
Env fusion inh: inhibitors of HIV-1 Env-driven cell-cell fusion, primary screen, HeLa-JRFL effector, CEM21 target cells, luciferase; inhibition, % at 12.3 µM; hit rate 1.1% among 360,000;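 active means mean replicate inhibition score of at least 50 and every replicate individually at or above 50; inconclusive means only one of the two criteria met; inactive means mean below 50 and not all replicates reaching 50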;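 further: 0% = plate neutral controls and 100% = maraviroc near 300 nM; one replicate is shown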
Rce1 inhib: yeast Rce1p protease inhibitors, primary screen, biochemical, fluorescence, cell-free homogeneous; AID 2563, 2010; CAAX prenyl protease 2 (Saccharomyces cerevisiae (strain ATCC 204508 / S288c)), Q03530; calls only; yeast membranes, quenched prenylated peptide cleavage fluorescence; hit rate 0.27% among 290,000;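 active means fall in fluorescence gain of 50% or more versus controls, with final raw signal at or below 3038400; inconclusive means same 50% fall but final raw signal above 3038400; inactive means fall in fluorescence gain under 50%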;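 further: plate controls were neutral control wells for no effect and wells lacking membranes for full effect; tested at 10 µM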
eIF4H FP inh: human eIF4H binding inhibitors, primary screen, translation initiation inhibitor project, biochemical, uHTS, fluorescence polarization; Eukaryotic translation initiation factor 4H (Homo sapiens), Q15056; eIF4H fluorescence polarization binding assay; inhibition, % at 35 µM; hit rate 0.94% among 290,000;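 active means 50% or more with normal probe brightness, or confirmed in later tests; inconclusive means above 50% with abnormal brightness, or retests that disagree; inactive means below 50% or failed in later tests; about a fifth of its hits are not listed in these tables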;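 further: calls also rest on retests at 20 µM and on dose response follow-up; 0% = protein and probe with vehicle and 100% = probe without protein; strong numbers were not always called active; many hits fall short of the cut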
MT1-MMP act inh: blockers of MT1-MMP proenzyme processing, primary screen, HT1080 RFP-PRO-GFP cells, GFP/RFP fluorescence. GFP/RFP ratio fluorescence, overnight; percent of plate control window, DMSO zero. GFP/RFP ratio change, % at 20 µM. hit rate 0.061% among 360,000;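 active means GFP/RFP ratio change of at least 30% with cell ATP level not reduced by more than half and red fluorescence within 50% of control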; further: strong numbers were not always called active
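Assay system: HT1080 RFP-PRO-GFP cells | Dosing: 20 µM single dose, 1% DMSO | Incubation: Cells overnight before dosing, compound overnight, 37 °C, 5% CO2 | Evaluation: GFP/RFP fluorescence ratio | Control set: DMSO-only wells and HT1080 RFP-L50D-GFP cell wells as references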
PABP FP inh: PABP poly(A) RNA binding inhibitors, primary screen, biochemical, fluorescence polarization, uHTS; inhibition, % at 35 µM; hit rate 1% among 290,000;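 active means 50% or more with normal probe brightness, or confirmed in later tests; inconclusive means above 50% with abnormal brightness, or retests that disagree; inactive means below 50% or failed in later tests; about a fifth of its hits are not listed in these tables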;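 further: calls also rest on retests at 20 µM and on dose response follow-up; controls were probe without protein and protein plus probe with vehicle; some compounds called inactive have numbers as strong as hits; many hits fall short of the cut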
Target sequence (P11940 whole entry, looked up): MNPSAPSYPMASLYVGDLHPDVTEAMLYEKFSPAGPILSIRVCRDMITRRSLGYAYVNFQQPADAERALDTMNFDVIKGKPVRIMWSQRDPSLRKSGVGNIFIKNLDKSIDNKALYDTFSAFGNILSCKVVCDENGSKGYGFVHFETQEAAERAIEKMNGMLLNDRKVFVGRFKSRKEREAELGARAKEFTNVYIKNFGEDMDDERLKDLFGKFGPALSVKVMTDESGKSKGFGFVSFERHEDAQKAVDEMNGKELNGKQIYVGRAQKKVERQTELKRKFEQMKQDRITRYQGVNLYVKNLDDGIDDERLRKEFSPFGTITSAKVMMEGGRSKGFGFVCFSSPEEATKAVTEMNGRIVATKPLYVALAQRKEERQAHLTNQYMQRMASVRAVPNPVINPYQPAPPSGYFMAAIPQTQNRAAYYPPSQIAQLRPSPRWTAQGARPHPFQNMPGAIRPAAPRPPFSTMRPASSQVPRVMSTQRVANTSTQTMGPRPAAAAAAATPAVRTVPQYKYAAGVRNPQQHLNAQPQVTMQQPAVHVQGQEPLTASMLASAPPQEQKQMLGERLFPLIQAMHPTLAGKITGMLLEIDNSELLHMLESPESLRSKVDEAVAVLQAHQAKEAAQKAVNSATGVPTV
CSC inhib: cancer stem cell viability inhibitors, primary screen, luminescence; AID 2717, 2010; inhibition, % at 7.5 µM; cancer stem cell-like cells viability; hit rate 1.1% among 300,000;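 active means mean at 75% or more and at least half the replicates too; inconclusive means mean and replicates disagree; tested in HMLE shEcad cells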;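 further: 0% = median of negative and 100% = median of positive control wells; the first replicate is given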
eIF4H FP inh retest: further read-out of eIF4H FP inh, marked with its call; inhibition, %; compound at 20 µM; confirmation average;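 mean of two retest wells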
PABP FP inh retest: also measured in PABP FP inh; calls as there; inhibition, %; compound at 20 µM; confirmation repeats;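 mean of two retest wells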
MT1-MMP act inh RFP: also measured in MT1-MMP act inh; calls as there; RFP signal change, %; measured here: RFP expression control read;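 0 = vehicle wells; hits needed this value within 50% of zero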
The depositor's hits bear a star; i = inactive; ? = inconclusive; · = not tested or not shown; + = active, no number; & = joins results of further samples.

SMILES	UUG fidelity	Env fusion inh	Rce1 inhib	eIF4H FP inh	MT1-MMP act inh	MT1-MMP act inh RFP	PABP FP inh	CSC inhib	others
C/C(=N\NC(=O)CCC(=O)Nc1ccc(C)c(C)c1)c1cccs1	·	-6	i	-6	2	3	-10	-12
CCOc1cc(N2CCOCC2)c(OCC)cc1NC(=O)c1c(-c2ccccc2)noc1C	8	·	·	·	1	1	·	5
CCN(CC)c1nc(C)nc2c1cnn2CCc1ccccc1	-3	·	i	1	-1	4	23	-18
Nc1cccc(C2=Nc3cccc4cccc(c34)N2)c1	·	·	i	13	11	-12	-4	9
Brc1cnc2nc[nH]c2c1	14	2	i	-3	-1	1	6	-12
CC(=O)NC1C(=O)N(CCN2CCOCC2)c2ccc(Cl)cc21 (stereo unspecified)	1	-12	i	-14	-1	7	9	-2
O=C(NC1CC1)C1=C[C@H](c2ccc(Br)cc2)C[C@H](OCc2ccc(CO)cc2)O1	-17	-15	i	-2	6	-4	2	2
Cc1cc(C(=O)Nn2cnc3ccccc3c2=O)ccc1[N+](=O)[O-]	·	13	i	9	1	4	-1	·
O=C(Nc1ccc2c(c1)OCO2)N1CCCc2ccccc21	-11	-27	i	16	2	4	8	-5
Cc1nc2ncnn2c(C)c1CCC(=O)NCc1ccco1	-13	6	i	-8	-3	4	-11	-8
CCOC(=O)C(C)n1cnc2c(nnn2-c2ccc(F)cc2)c1=O (stereo unspecified)	21	-12	i	0	-10	2	8	-2
CCOC(=O)NC(c1ccccc1)C1CCCCC1=O (stereo unspecified)	-11	·	i	-3	0	6	4	0
COc1ccc(CC(=O)N/N=C/C=C/c2cccc([N+](=O)[O-])c2)cc1OC	-8	13	i	-1	-5	-5	-2	-11
COc1ccc(/C=C2/C(=O)N(c3ccccc3)N=C2C)cc1	-21	·	i	·	2	5	·	4
O=c1c2c3c(sc2nc2sc(CN4CCOCC4)cn12)CCCC3	-14	·	i	-1	-4	5	8	·
Cc1ccc(C)c2[nH]c(=O)c(CCNC(=O)c3ccc(Br)o3)cc12	-14	·	i	·	6	-4	·	-3
COC(=O)c1ccc2nc(-c3ccc(OC)c(OC)c3)c(Cc3ccsc3)n2c1	3	-29	·	·	-2	1	·	·
O=C(OCc1nnc(-c2ccccc2)o1)C1CCN(C(=O)c2ccc(Cl)cc2)CC1	3	-23	·	·	0	4	·	·
COc1ccccc1-c1nn2c(C3COc4ccccc4O3)nnc2s1 (stereo unspecified)	·	-42	i	-10	0	-3	-4	-5
Cc1[nH]c2ccccc2c1C(=O)COC(=O)c1ccc[n+]([O-])c1	·	24	i	-3	2	2	2	-18
COC(=O)N/N=C\C=C\c1ccc2c(c1)OCO2	-14	·	i	4	-4	-2	-8	-8
COc1cc(/C=N/NC(=O)c2ccc(=O)[nH]n2)ccc1O	·	-182	i	-11	6	8	-5	-17
COc1cccc(NC(=O)/C=C/c2ccc([N+](=O)[O-])cc2)c1	17	-11	i	0	10	-7	-4	39
Cc1ccc(-n2ncc3c(=O)n(CC(=O)N4CCN(c5ccccc5)CC4)cnc32)cc1	·	-5	i	-8	0	1	-6	-12
CCc1nc2ccc(C(=O)NCc3ccc4c(c3)OCO4)cn2c1N(C)CCC(C)C	-13	29	·	·	-3	0	·	·
Other compounds.
SMILES	UUG fidelity	Env fusion inh	Rce1 inhib	eIF4H FP inh	MT1-MMP act inh	MT1-MMP act inh RFP	PABP FP inh	CSC inhib	others
CCCn1nnnc1NCc1cccc(Cl)c1	-20	-10	i	1	3	-3	2	1
N#CC1(C#N)C(C(N)=O)C1c1ccccc1 (stereo unspecified)	-13	·	i	7	-7	7	-2	1
O=C(NN1CCOCC1)c1cc(-c2ccc(Br)s2)nc2ccccc12	·	10	i	-5	-5	3	-5	-16
C=CCSc1n[nH]c(-c2cccs2)n1	-15	6	i	-18	1	-6	8	0
Cc1ccc(C)c(NC(=O)CN(C)C(=O)c2ccc(S(=O)(=O)N(C)c3ccccc3)cc2)c1	-2	·	·	·	0	-8	·	3
O=C(CCCN1C(=O)/C(=C/c2ccc3c(c2)OCO3)SC1=S)Nc1ccc(C(=O)O)cc1	-32	?	i	18	1	5	-11	13
CCCn1c(C(C)Nc2nc(C)cs2)nc2cc(Cl)c(Cl)cc21 (stereo unspecified)	-25	·	i	-4	1	-4	5	9
CCOc1ccccc1N1CCN(C(=O)CNC(=O)c2ccc(OC)c(OC)c2)CC1	-7	-1	i	11	2	0	8	6
Cc1cc(NC(=O)C(C)C)ncc1NC(=O)c1cccc(F)c1	-3	·	i	-5	3	-1	-7	2
CCOc1ccccc1CN1CCN(CCCn2cccn2)CC1CCO (stereo unspecified)	·	-17	i	1	1	6	-5	0
COCCCNC(=O)c1cc2c(-c3cccc(OC)c3)nn(C)c2s1	2	15	+	-3	7	2	4	16
Cc1ccnc(NC(=O)c2cc3c(=O)oc4ccc(C)cc4c3s2)c1	-23	5	i	-10	1	6	-2	-2
CC1CCN(c2ccccc2NC(=O)c2ccc([N+](=O)[O-])o2)CC1	-2	6	i	-2	-5	-4	6	·
Fc1cccc(Cn2ccc(-c3ccc4c(c3)OCO4)n2)c1	-12	-36	i	2	-8	-13	-8	6
COc1ccc(C(=O)Oc2ccc(/C=N/O)cc2)cc1	6	-28	i	-4	0	-2	5	1
CC1CN(C(=S)Nc2ccc(SC(F)F)cc2)CC(C)O1 (stereo unspecified)	-9	-7	i	-16	-1	-2	-4	·
COCCCNC(=S)NCCNc1nc2c(C)c(C)ccc2cc1C#N	·	2	·	1	5	-5	-2	·
Cc1cc(O)c(Oc2cc(C)cc(O)c2O)c(O)c1	-18	·	·	27	2	-1	8	80*
O=C(Nc1ccc(Br)cc1)c1cccnc1N1CCOCC1	·	6	i	-2	1	2	3	7
COc1ccc(Cl)cc1NC(=O)CSc1nc(=O)n(CCN(C)C)c2c1CCCC2	1	2	i	·	5	0	·	-9
O=C(OCC1CC(c2ccccc2)=NO1)c1ccc(Br)cc1 (stereo unspecified)	·	·	i	-4	-7	-4	-4	-25
CCc1cccc(NC(=O)c2cccc3c2C(=O)N(CC2CCCO2)C3)c1 (stereo unspecified)	-2	31	i	-16	9	-3	-6	·
COCCCNc1nc(N)c([N+](=O)[O-])c(Nc2cc(OC)ccc2OC)n1	-13	-9	i	9	-4	0	-3	-4
O=C1c2cccc([N+](=O)[O-])c2C(=O)N1c1c[nH]c(=O)[nH]c1=O	·	-5	i	-6	7	0	5	2
COc1cccc(NC(=O)c2ccccc2N(Cc2ccccc2)S(C)(=O)=O)c1	2	-27	i	-8	-4	-4	0	-10

Quoted at random: four records from the list.
SMILES	UUG fidelity	Env fusion inh	Rce1 inhib	eIF4H FP inh	MT1-MMP act inh	MT1-MMP act inh RFP	PABP FP inh	CSC inhib	others
CC1CCN(c2ccccc2NC(=O)c2ccc([N+](=O)[O-])o2)CC1	-2	6	i	-2	-5	-4	6	·
N#CC1(C#N)C(C(N)=O)C1c1ccccc1 (stereo unspecified)	-13	·	i	7	-7	7	-2	1
O=C(Nc1ccc(Br)cc1)c1cccnc1N1CCOCC1	·	6	i	-2	1	2	3	7
Cc1cc(NC(=O)C(C)C)ncc1NC(=O)c1cccc(F)c1	-3	·	i	-5	3	-1	-7	2

The list goes on.
SMILES	UUG fidelity	Env fusion inh	Rce1 inhib	eIF4H FP inh	MT1-MMP act inh	MT1-MMP act inh RFP	PABP FP inh	CSC inhib	others
COc1ccc(OC)c(N(CC(=O)Nc2ccccc2F)S(=O)(=O)c2ccccc2)c1	·	13	i	·	-1	0	·	15
Cc1ccccc1C(=O)NC(=S)NCCN1CCOCC1	·	18	i	0	1	4	5	-7
COc1ccc(N2CCN(Cc3cc(=O)oc4cc(C)c(Cl)cc34)CC2)cc1	-9	·	i	2	1	-1	1	-2
COc1ccc(OC)c(C2N(c3cc(C)on3)C(=O)C3CCCN32)c1 (stereo unspecified)	-18	-35	i	-4	-3	7	-7	-1
Cc1ccc(C)c(NC(=O)c2ccc3ccccc3n2)c1	-16	·	i	-1	-4	-4	8	3
C[C@@H]1CN([C@@H](C)CO)C(=O)c2cc(Br)cnc2O[C@@H]1CN(C)C(=O)Nc1ccc(F)cc1	12&0&-3	13	·	·	-2	1	·	·
CC(C)CN(C)C(=O)CCc1nnc(Cc2cccc(C(F)(F)F)c2)o1	·	-17	i	-3	-2	0	-5	2
Fc1cc(NCc2ccccc2)nc(NCc2ccccc2)n1	·	20	i	-5	4	5	10	3
Cc1cc(C)n(C(=O)c2c([N+](=O)[O-])c(C)nn2C)n1	-8	-194	i	7	-6	-10	-1	-7
O=C(COc1ccc(Br)cc1)Nc1ccc(CN2CCOCC2)cc1	-16	21	i	-5	7	-6	-5	14
Cn1c(SCC(=O)c2ccccc2)nnc1-c1ccco1	3	-19	i	-2	1	2	-8	·
CN1CCc2nc(SCc3ccc(C(C)(C)C)cc3)c(C#N)cc2C1	-9	·	·	9	-21	-3	0	45
Cc1ccc(C(C)(C)C)cc1S(=O)(=O)Nc1nc2ccccc2nc1Cl	2	7	i	-2	-7	2	3	-2
CCCc1cc(C(=O)N2CCCC(C(=O)c3cc(C)c(OC)c(C)c3)C2)n(C)n1 (stereo unspecified)	-12	-3	i	·	0	-6	·	-3
CCOc1cccc(-c2c(C(=O)N/N=C/c3ccncc3)nnn2-c2nonc2N)c1	-18	-12	i	-4	-4	2	8	12
O=S(=O)(Nc1ccccn1)c1cccc(S(=O)(=O)c2ccc(Cl)cc2)c1	·	8	i	-4	1	-1	-3	-8
CCn1c2ccccc2c2nnc(SCC(=O)NCCOC)nc21	-6	·	i	-8	1	0	1	-6
CCN(C(=N)N=C(N)N)c1ccccc1	·	-8	i	-1	-1	3	1	-11
COc1ccccc1C(=O)NC(CCSC)C(=O)NCC(c1ccco1)N(C)C (stereo unspecified)	-4	41	i	-14	-40	2	-6	-6
CC1CCC(NC(=O)c2ccc(NS(=O)(=O)c3ccc4[nH]c(=O)[nH]c4c3)cc2)CC1 (stereo unspecified)	-4	-29	i	·	3	2	·	0
CC(=O)Oc1cccc(N2C(=O)C3C4C=CC(C4=C(C)C)C3C2=O)c1 (stereo unspecified)	-24	-76	i	4	1	2	0	-7
CCN(CC)S(=O)(=O)c1ccc(Oc2cccc(C(C)=O)c2)nc1	1	-13	i	0	8	9	-3	-9
O=C(CSc1nc2ccccc2[nH]1)NC1CCCC1	-13	-9	i	74	1	6	12	3	eIF4H FP inh retest=7;PABP FP inh retest=-3
C=CCC[C@@H](Cc1ccc(F)cc1)C(=O)OC[C@@H](Cc1c[nH]c2ccccc12)NC(=O)[C@@H](CC=C)CC(=O)NCCO	7	-279	·	·	-1	-5	·	·
CCN1CCN(c2nc3ccccc3nc2C(C#N)S(=O)(=O)c2ccc(C)cc2)CC1 (stereo unspecified)	-3	-5	i	?	-27	-4	?	-2
CCC(=O)N(CCc1ccccc1)Cc1cc2cc(OC)ccc2[nH]c1=O	·	5	i	-1	1	-1	0	-3
CCn1c(=O)cc(OCC(=O)Nc2ccc(C)cn2)c2ccccc21	-20	-98	i	-1	16	6	4	50
S=C(NCc1ccccc1)N1CCn2cccc2C1c1ccncc1 (stereo unspecified)	·	7	i	7	-4	0	6	1
